PMP22 txn prim = Cell-based coincidence reporter assay to measure PMP22 gene transcription in S16 Pmp22-F2sN cells - Primary screen; AID 1508649, 2021; 2% of 43,000 active; Potency, µM (top dose mostly 57.5 µM), inactives show at the highest dose activity change, negative = inhibition, actives largely listed as inhibitors; S16 Pmp22-F2sN Schwann cells (luciferase reporters placed in the Pmp22 gene), FLuc/NLuc coincidence luminescence, 24 h; active = clear falling dose curves in both reporters; inconclusive = both reporters move, but less clearly or upward; inactive = either reporter flat; the % is the NLuc reporter signal; also: % is scaled to controls: 0 for no effect and ±100 for the full control effect; some results filed as inactive show a strong effect at the top dose
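Rat S16 Pmp22-F2sN cells, 500-1,000/well in phenol red-free DMEM + 10% FBS, compound-treated 24 h (37C, 5% CO2). Luminescence: FLuc read, Stop&Glo added, NLuc read.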
HTT promoter inh = Primary qHTS for Identification of Small Molecule Inhibitors of Huntingtin Promoter Activity; HEK293 HTT promoter firefly luciferase reporter (activity 0% = vehicle and -100% = no light), 24 h; Potency, µM (doses to about 57.5 µM), for the others: at the top dose activity change, negative = inhibition, hits mostly inhibitors; 0.93% of 48,000 active; active = well fitted inhibition curve with a large enough effect; inconclusive = small, poorly fitted or top-dose-only effect; inactive = no such curve, though single readings can be large or run the other way; also: nearly all actives have a fitted effect of over 50% in size
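HEK293 luciferase promoter-reporter cells (2,500/well) plated 24 h, then compounds added at up to 57.5 uM final for 24 h at 37 °C. Firefly luminescence by Dual-Glo, normalized to vehicle (0%) and zero RLU (-100%).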
The depositor's hits bear a star; ? = inconclusive; / = no result given; & = joins results of further samples; [ ] = dose if it differs, or a comment. Potency is read from the fitted curve at half-maximal effect. Rows are unselected; about 2.7% have a hit in one of these screens.

SMILES | PMP22 txn prim | HTT promoter inh
Cc1c(C(=O)Nc2nc(-c3ccc(F)cc3)ns2)oc2ccc(Br)cc12 | -2% | -2%
CSc1ccc(CCNC(=O)C2CCN(c3ncnc4c3nc3n4CCCCC3)CC2)cc1 | -40% | -3%
CCC(C)NC(=O)CCSc1nc(-c2ccc(OC)cc2)cc(C(F)(F)F)n1 (stereo unspecified) | ? | -29%
CCc1ccc2nc(N(Cc3cccnc3)C(=O)c3ccc(C#N)cc3)sc2c1 | -10% | ?
Cc1c(NC(=O)C(C)(C)Oc2ccc(Cl)cc2)cccc1-c1nc2ncccc2o1 | ? | ?
CN(C)CCN(Cc1ccc(Cl)cc1)c1ccccn1 | / | 5%
CCSc1ncc(Cl)c(C(=O)Nc2c(C(=O)Nc3ccc(Cl)cc3)oc3ccccc23)n1 | -14% | 6%
COc1cc(O)cc(O)c1 | / | 10%
COc1ccccc1NC(=O)C1=C(C)Nc2nc(SCc3ccccc3)nn2C1c1cccs1 (stereo unspecified) | -17% | ?
O=C(Nc1ccc(F)c(F)c1)C1CCCN1S(=O)(=O)c1cccc2nsnc12 (stereo unspecified) | 5% | -26%
COc1ccc(OC)c(CNC(=O)c2cnc3c(C)cccn3c2=O)c1 | -3% | 9%
COc1cccc2sc(NC(=O)c3ccc4c(c3)OCCO4)nc12 | ? | 17%
Cc1ccn2c(=O)cc(CSc3nnc(NC(=O)c4ccccc4Cl)s3)nc2c1 | 0% | 10%
CCOc1ccc(CNC(=O)CCn2c(=O)c3cccn3c3ccc(F)cc32)cc1 | -28% | -8%
CC(C)NC(=O)N1CCN(S(=O)(=O)c2ccc3c(ccn3C)c2)CC1 | -6% | -32%
CCS(=O)(=O)N1CCCC(C(=O)NCCOC)C1 (stereo unspecified) | 2% | -13%
CCOc1ccc(-c2nnc(SCC(=O)NCCc3ccc(OC)c(OC)c3)nc2-c2ccc(OCC)cc2)cc1 | -3% | 1%
CCOC(=O)c1c(C)[nH]c(C)c1S(=O)(=O)N(C)CC(=O)N1CCN(c2ccccc2OC)CC1 | 32% | -23%
Cc1ccc(CCNC(=O)c2ccc(Cn3c(=O)c4cccn4c4cccnc43)cc2)cc1 | ? | -17%
CCOc1ccccc1Nc1nc2c(S(=O)(=O)c3ccc(C)cc3)nnn2c2ccsc12 | 1% | -7%
CC(=O)c1ccc(NC(=O)Cn2ncc3c4ccccc4n(Cc4ccccc4)c3c2=O)cc1 | -13% | -15%
CCc1cccc(NC(=O)Cn2cc(C(=O)c3ccncc3)c(=O)c3cc(C)c(C)cc32)c1 | -9% | -26%
CCC1=C(c2ccc(C)cc2)S(=O)(=O)N=C1N1CCC(C(=O)NCc2ccccc2Cl)CC1 | ? | ?
CCC(=O)N1c2ccccc2CC1C(=O)NCCCN1CCN(c2ccc(F)cc2)CC1 (stereo unspecified) | -21% | -3%
COc1cc(NC(=O)Cn2ccn(-c3cc(C)cc(C)c3)c(=O)c2=O)cc(OC)c1 | -3% | -2%
CCN(Cc1ccccc1)C(=O)Cn1c(=O)n(-c2ccccc2)c(=O)c2c1c1cc(C)ccc1n2C | 18µM* | -15%
COc1ccccc1N1CCN(C(=O)c2cc(-c3ccc(F)cc3)on2)CC1 | 2% | -8%
Cc1c(C)n(Cc2ccc(Cl)cc2)c2ccc(C(=O)NCCc3ccc(S(N)(=O)=O)cc3)cc12 | ? | ?
CC(C)OCCCN(C)C1CCN(S(=O)(=O)c2csc(C(N)=O)c2)CC1 | -20% | -5%
COc1cc2c3cc1Oc1cc(ccc1O)C[C@@H]1c4c(cc(OC)c(O)c4Oc4ccc(cc4)C[C@@H]3N(C)CC2)CC[N+]1(C)C | / | 9%
Cc1ccccc1Cn1c(=O)n(CC2CCC(C(=O)N3CCOCC3)CC2)c(=O)c2sccc21 (stereo unspecified) | 12µM* | -7%
COC(=O)c1cccc(Nc2nn3c(=O)c4cc5c(cc4nc3s2)OCO5)c1 | 11% | -2%
CCOc1ccc(Br)cc1C1NC(=O)c2c(sc3c2CCN(C)C3)N1 (stereo unspecified) | ? | 18%[11.5 µM]
COc1ccc(S(=O)(=O)c2nnn(-c3cc(Cl)c(OC)cc3OC)c2C)cc1 | ? | ?
Cc1ccc(CN(Cc2ccco2)C(=O)c2ccc(OCC(C)C)cc2)cc1 | ? | -22%
Cc1ccsc1CN1CCc2nc(N3CCN(c4ccccc4F)CC3)ncc2C1 | -49% | ?
CC1=CC(=O)c2ccccc2C1=O | / | -21%&5%
COc1ccc(C)cc1NC(=O)c1cn(C)c(=O)c2cc(OC)c(OC)cc12 | -15% | -6%
Cc1oc(-c2cccc(Cl)c2)nc1Cn1c(SCc2ccc(F)cc2)nc2cccnc21 | -57% | ?
O=C(CC(c1cccs1)N1Cc2ccccc2C1=O)Nc1ccc(F)cc1 (stereo unspecified) | -19% | -10%

Another view of twelve compounds above:
compound,PMP22 txn prim,HTT promoter inh
CC(=O)c1ccc(NC(=O)Cn2ncc3c4ccccc4n(Cc4ccccc4)c3c2=O)cc1,-13%,-15%
CCc1cccc(NC(=O)Cn2cc(C(=O)c3ccncc3)c(=O)c3cc(C)c(C)cc32)c1,-9%,-26%
CCC1=C(c2ccc(C)cc2)S(=O)(=O)N=C1N1CCC(C(=O)NCc2ccccc2Cl)CC1,?,?
CCC(=O)N1c2ccccc2CC1C(=O)NCCCN1CCN(c2ccc(F)cc2)CC1 (stereo unspecified),-21%,-3%
COc1cc(NC(=O)Cn2ccn(-c3cc(C)cc(C)c3)c(=O)c2=O)cc(OC)c1,-3%,-2%
CCN(Cc1ccccc1)C(=O)Cn1c(=O)n(-c2ccccc2)c(=O)c2c1c1cc(C)ccc1n2C,18µM*,-15%
COc1ccccc1N1CCN(C(=O)c2cc(-c3ccc(F)cc3)on2)CC1,2%,-8%
Cc1c(C)n(Cc2ccc(Cl)cc2)c2ccc(C(=O)NCCc3ccc(S(N)(=O)=O)cc3)cc12,?,?
CC(C)OCCCN(C)C1CCN(S(=O)(=O)c2csc(C(N)=O)c2)CC1,-20%,-5%
COc1cc2c3cc1Oc1cc(ccc1O)C[C@@H]1c4c(cc(OC)c(O)c4Oc4ccc(cc4)C[C@@H]3N(C)CC2)CC[N+]1(C)C,/,9%
Cc1ccccc1Cn1c(=O)n(CC2CCC(C(=O)N3CCOCC3)CC2)c(=O)c2sccc21 (stereo unspecified),12µM*,-7%
COC(=O)c1cccc(Nc2nn3c(=O)c4cc5c(cc4nc3s2)OCO5)c1,11%,-2%

More structures follow:
SMILES | PMP22 txn prim | HTT promoter inh
CC(=O)c1cccc(NS(=O)(=O)c2cc(-c3onc(C)c3C)ccc2C)c1 | 4% | ?
Cc1ccc(-n2c3c(cc(-c4nc(-c5ccc(Cl)cc5)cs4)c2=O)C(=O)CC(C)(C)C3)cc1 | 34% | -9%
CCc1ccccc1NS(=O)(=O)c1ccc(OC)c2ncccc12 | -25% | -19%
CCC(Oc1ccccc1)C(=O)Nc1cccc(OCc2cc(=O)n3cccc(C)c3n2)c1 (stereo unspecified) | ? | -6%
O=C(C1CC1)N1CC[C@@H](Cn2c(-c3ccc(-c4ccc5occc5c4)cc3)nc3cnccc32)C1 | / | -4%
Cc1ccc(NC(=O)CSc2nccn2Cc2ccco2)cc1Cl | ? | 30%[activator]
Cc1ccc(CNCc2ccc3c(c2)n(C)c(=O)n3C)cc1 | 5% | -12%
Cc1ccccc1NC(=O)C(=O)NCC(c1ccc2c(c1)OCO2)N1CCN(c2ccccc2)CC1 (stereo unspecified) | -29% | ?
COc1cccc(NC(=O)C2CCN(S(=O)(=O)c3cc(-c4noc(C)n4)ccc3C)CC2)c1 | ? | 13µM*
O=C(O)c1ccc(NCc2nc3ccccc3n2CCOc2ccccc2Cl)cc1 | 8% | -27%
COc1cc(C2c3c(-c4ccccc4O)n[nH]c3C(=O)N2CCO)ccc1OCC(C)C (stereo unspecified) | -7% | -21%
COc1cccc(C(=O)Nc2nnc(S(=O)(=O)N3CCCc4ccccc43)s2)c1 | -20% | ?
O=C1c2[nH]nc(-c3ccccc3O)c2C(c2ccc(F)cc2)N1CCO (stereo unspecified) | -14% | -14%
COc1ccc(C)cc1NC(=O)CN1CCN(CC(=O)Nc2ccccc2F)CC1 | -18% | -16%
CCCN1C(=O)CN(C2CCCCC2)C(=O)C1c1ccc(OC)c(OC)c1 (stereo unspecified) | -13% | -2%
COc1ccc(CCNC(=O)c2cc(C)nc3c2c(C)nn3-c2ccccc2)cc1OC | -86% | -16%
CC(=O)Nc1ccc(S(=O)(=O)NCC2CCC(C(=O)NCc3ccccc3Cl)CC2)cc1 (stereo unspecified) | -17% | -13%
O=C(C1CCCN(S(=O)(=O)c2cccc3nonc23)C1)N1CCN(c2ccccc2Cl)CC1 (stereo unspecified) | ? | ?
COc1cc(C(CC(=O)Nc2ccc(Br)cn2)N2Cc3ccccc3C2=O)cc(OC)c1OC (stereo unspecified) | 0% | -12%
CCC(Sc1nc2cc3c(cc2c(=O)n1CCCC(=O)NCc1ccc2c(c1)OCO2)OCO3)C(=O)NCCCOC (stereo unspecified) | 3% | -15%
Cc1cccc(-c2nc3scc(CCNC(=O)c4ccc(Br)o4)n3n2)c1 | -13% | -18%
CC(=O)c1cccc(-n2c(=O)c3c4c(sc3n(Cc3cccc(C)c3)c2=O)CN(C(C)=O)CC4)c1 | ? | -10%
CN(C(=O)c1cnc(N2CCOCC2)c2ccccc12)c1ccccc1F | -8% | 2%
O=C(Cn1ncc2c(Cl)cccc21)NCc1cccc(F)c1 | 12% | 7%
O=C(CSc1ncc2c(n1)-c1ccccc1N(Cc1ccc(Cl)cc1)S2(=O)=O)c1ccc(Cl)cc1 | 2% | -16%
COc1ccc(NC(=O)C(C)n2nc(-c3ccc(C)c(C)c3)ccc2=O)cc1OC (stereo unspecified) | -12% | ?
CC(=O)N1CCCc2cc(S(=O)(=O)NCc3cccc(C)c3)ccc21 | -10% | -25%
Cn1cc(C(=O)N2CCN(c3ccccc3)CC2)c(=O)c2cc(S(=O)(=O)N3CCCC3)ccc21 | -4% | -10%
CCOC(=O)Cc1ccc(NC(=O)N2CCc3c(sc4c3CCCC4)C2c2ccc(F)cc2)cc1 (stereo unspecified) | ? | ?
CCC(Sc1ncnc2sc3c(c12)CCCC3)C(=O)OC(C)C (stereo unspecified) | -24% | -12%
CN1C(=O)c2cccc3c(S(=O)(=O)Nc4cccc(C(=O)O)c4)ccc1c23 | -10% | -3%
COc1ccc(C2CC(=O)N(CC(=O)Nc3ccc(C(C)=O)cc3)c3ccccc3S2)cc1OC (stereo unspecified) | ? | ?
O=C(NCCCN1CCN(c2cccc(Cl)c2)CC1)c1cnn(-c2ccc(F)cc2)c1-n1cccc1 | ? | ?
CCC(C(=O)Nc1cc(F)ccc1F)n1nc(C)c2c(C)n(-c3ccc(C)cc3)nc2c1=O (stereo unspecified) | ? | ?
Cc1ccc(-n2c3nc(=O)n(C)c(=O)c-3cc3c(Cl)cccc32)c(C)c1 | -6% | -8%
CCOc1ccc(S(=O)(=O)N2Cc3ccccc3CC2C(=O)Nc2ccc(NC(C)=O)cc2)cc1 (stereo unspecified) | -9% | -19%
COc1cc(OC)c(NC(=O)c2c(C)nn(-c3ccc(C)cc3)c2-n2cccc2)cc1Cl | ? | -8%
Cc1cc(C)cc(Oc2c(C(F)(F)F)oc3c(CN4CCCC(C)C4)c(O)ccc3c2=O)c1 (stereo unspecified) | 1% | ?
COc1cccc(NC(=O)Cn2c(=O)n(Cc3nc(-c4ccccc4)no3)c(=O)c3ccccc32)c1 | 3% | -21%
O=S(=O)(c1ccc2nc(Nc3ccc(Br)cc3F)ccc2c1)N1CCCCC1 | -1% | -12%
CCN(CC)C(=O)Cn1c(SCC(=O)Nc2ccc(C)c(C)c2)nc2ccccc21 | -80% | -23%
O=c1c2sc3ccccc3c2n(Cc2ccccc2Cl)c(=O)n1Cc1ccccc1 | 4% | -5%
Cc1ccc2c(c1)nc(SCC(O)c1ccc(Br)cc1)n2C (stereo unspecified) | -25% | -3%
O=C(CSc1ncc(-c2ccc(Cl)cc2)[nH]1)Nc1ccccc1F | ? | -22%
CCc1nnc(SCc2nc(-c3ccccc3F)oc2C)c2cc3sccc3n12 | ? | -2%
CCOC(=O)c1c(C)oc2nc(C)nc(NCCc3ccc(OCC)cc3)c12 | 14µM* | ?
CCOc1ccc(NC(=O)c2cc(S(=O)(=O)N3CCc4ccccc43)ccc2F)cc1 | -1% | ?
CC[C@H](C)NC(=O)CCCc1nnc2n(CCC(C)C)c(=O)c3sccc3n12 | -18% | -13%
CC(=O)Nc1ccc(NS(=O)(=O)c2c(C(=O)N3CCCCCC3)c(C)n(C)c2C)cc1 | 11% | 2%

Assay outcomes: PubChem, National Center for Advancing Translational Sciences (NCATS)
